Assay outcomes from PubChem.
VCAM-1 rise: enhancers of VCAM-1 display on endothelial cells, cell-based, plate reader, pooled HUVEC, TNFa stimulus (AID 455). HUVEC TNFa-induced VCAM-1 immunofluorescence, plate reader; numbers were filed only for top-ranked candidate wells. 0.2% of 10,000 active. augmentation, % at 5 µM;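 active = a compound raising TNF-alpha-driven VCAM-1 surface staining, with its hit status upheld on visual or statistical review; inactive = the rest, including hits rejected on review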;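 note: 0% = TNFa with vehicle and 100% = strongest image-checked hit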
Proteasome disasm: blocks ATP-dependent breakdown of the yeast 26S proteasome | anti-FLAG beads, GFP-proteasome disassembly, flow cytometry | inhibition of disassembly, % (concentration not given with the values) | 0.2% of 24,000 active;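 active = above 40%; inconclusive = likely self-fluorescent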;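 note: plate controls were ATP control with full disassembly for no effect and ATP-gamma-S intact proteasomes for full effect; higher percent means more bead fluorescence retained so stronger block of disassembly; stock transfer was 100 nL into about 10 µL; wells with too few beads may also be inconclusive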
* = called active by the depositor; i = inactive; u = inconclusive; x = no result given. This is a subset. The share of hits here may be higher or lower than overall.

SMILES | VCAM-1 rise | Proteasome disasm
CC(NC(=O)c1cc2sccc2n1C)c1ccc2c(c1)OCCO2 (configuration not stated) | x | 0.2
Cc1oc(-c2ccccc2F)nc1CS(=O)(=O)CC(=O)NCCCN(C)C1CCCCC1 | x | -0.8
CCCCCC(=O)N1CCN(CCN=CC2=C(O)CC(c3ccco3)CC2=O)CC1 (configuration not stated) | x | 2.1
COc1ccc(N(C(=O)c2ccco2)S(=O)(=O)c2cc(OC)ccc2OC)cc1 | i | -1.0
O=C(c1ccc2c(=O)n(-c3ccccc3)c(=O)[nH]c2c1)N1CCN(c2ccc(F)cc2)CC1 | x | -2.6
CCOC(=O)CSc1nc2ccccc2c(=O)n1NC(=O)c1ccccc1 | i | -0.3
O=C(c1ccccn1)N(CC1CCCO1)C1(C(=O)NC2CCCCC2)CCCCC1 (configuration not stated) | x | 0.1
CCOc1ccccc1/C=c1\sc2nc(-c3ccco3)nn2c1=O | x | 13
CC(C)OC(=O)c1nnc(Cc2ccc(F)cc2)o1 | x | 0.2
COc1ccc(OC)c(-c2cc(C(=O)N3CCN(c4ccccc4)CC3)no2)c1 | x | u
CCn1c(=O)cc(SCC(=O)NCc2ccccn2)c2ccccc21 | x | 0.4
Cc1ccc(S(=O)(=O)c2nc(-c3ccc(F)cc3)oc2SCC(N)=O)cc1 | x | -1.1
CCOC(=O)C1CCN(C(=O)C2CCN(c3nc4ccc(OC)cc4s3)CC2)CC1 | x | 0.1
CCOC(=O)CNC(=O)C(=O)c1c(O)[nH]c2ccccc12 | x | 0.4
Nn1c(SCC(=O)Nc2ccc(F)cc2)nnc1-c1cccnc1 | i | 17
CCOc1ccc(-c2[nH]nc3c2C(c2ccc4c(c2)OCO4)C(C#N)=C(N)O3)cc1OC (configuration not stated) | x | -0.5
Fc1ccc(OCc2nc(-c3ccc(Br)o3)no2)c(F)c1 | x | 0.5
CN(C)c1ccc(NC(=O)Cn2cc3c(n2)CCCC3)cc1 | i | -0.4
CCC(=O)N1CCc2cc(S(=O)(=O)NC(C(=O)NCc3ccc(F)cc3)C(C)C)ccc21 (configuration not stated) | x | 1.0
COc1cccc(NC(=O)N2CCN(C(=O)C(Cc3ccc(OC)c(OC)c3)NC(C)=O)CC2)c1 (configuration not stated) | i | -0.1
COc1ccc(C/C(N)=N/n2cnnc2)cc1Cl | i | 2.7
COC(=O)c1cc(=O)nc2sc(-c3ccccc3)nn12 | x | 0.5
CC1(C2(O)CC(c3ccccc3)ON2)CCCCC1 (configuration not stated) | i | -3.7
COC(=O)c1cccc(C(=O)Nc2ccc(C)cc2)n1 | x | -0.2
CCCn1c2c(c(O)c(C(=O)NC)c1=O)CCCC2 | i | 0.8

More results.
SMILES | VCAM-1 rise | Proteasome disasm
CSc1ccccc1NC(=O)C1CCCO1 (configuration not stated) | i | -1.4
CCN1CCN(C(=O)C2CCN(Cc3nc(-c4ccc(Cl)cc4)oc3C)CC2)CC1 | x | -0.5
CCOC(=O)C1=C(C)Nc2nc(C)nn2C1c1ccc(OC)c(OC)c1 (configuration not stated) | x | -3.4
Cc1ccc(NC(=O)c2noc3c2CCCCC3)cc1C | x | 1.0
O=C(Cn1cnc2ccccc2c1=O)NCCC(=O)Nc1ccc2c(c1)OCCO2 | x | 1.3
COc1ccccc1NC(=O)C1=C(C)Nc2nnnn2C1c1ccncc1 (configuration not stated) | x | 0.5
CCN(CCCNS(=O)(=O)c1ccc2c(c1)CCN2C(C)=O)c1cccc(C)c1 | x | -1.1
FC(F)(F)c1cccc(NCc2cn3cccnc3n2)c1 | x | 2.5
CCCc1cc(=O)[nH]c(=S)[nH]1 | i | -0.4
COc1ccc(C)cc1NC(=O)CCC(=O)Nc1ccc2nc(N3CCN(C)CC3)cc(C)c2c1 | i | -0.7
CC(=O)Nc1nnc(S(N)(=O)=O)s1 | i | 0.3
CCC(C)N1C(=O)c2ccccc2C1C(=O)NC1CCCCCC1 (configuration not stated) | x | 1.1
CCCOc1cccc(C2/C(=C(/O)c3ccccc3)C(=O)C(=O)N2CCN(C)C)c1 (configuration not stated) | i | 0.3
C=CCSc1nnc(-c2c[nH]c3ccccc23)n1CCOC | x | -0.7
O=C(O)c1cc(-c2ccncc2)nc2ccc(S(=O)(=O)N3CCOCC3)cc12 | x | -0.2
CCOc1ccc(NC(=O)CC2NCCNC2=O)cc1 (configuration not stated) | i | 2.4
COc1ccc(-c2nc3n(n2)C(c2ccncc2)C(C(N)=O)=C(C)N3)cc1 (configuration not stated) | x | 0.2
C=CCn1sc(=N)c(C#N)c1N | x | 0.6
CN(CCCNC(=O)COc1cc(=O)n(C)c2ccccc12)Cc1ccccc1 | x | -0.5
CCOC(=O)N1CCN(C(=O)CSc2nnc(CNC(=O)c3ccccc3F)o2)CC1 | x | 0.5
O=C(Nc1cccc(F)c1)N1CC=C(n2c(=O)[nH]c3ccccc32)CC1 | i | -2.7
Cc1n[nH]c(C)c1S(=O)(=O)N(CC(=O)NC1CCCC1)c1ccc(C(C)C)cc1 | x | -3.1
CCc1nnc(NC(=O)CN2CCN(c3ccccc3OC)CC2)s1 | i | 0.6
O=C(Cn1c(=O)oc2cc(S(=O)(=O)N3CCCCCC3)ccc21)NC1CCCCC1 | x | 0.1
CC1CCN(C(=O)Cn2c(=O)oc3ccccc32)CC1 | i | -1.2

Additional structures.
SMILES | VCAM-1 rise | Proteasome disasm
CCC(C)(C)n1nnnc1C(c1cc2cc(C)ccc2[nH]c1=O)N1CCCC1 (configuration not stated) | i | 18
Cc1c[n+]([O-])n(-c2ccc(C(=O)O)cc2)n1 | x | -1.1
Cc1nnc(SCC2=C(C(=O)O)N3C(=O)[C@@H](NC(=O)Cn4cnnn4)[C@H]3SC2)s1 | i | -0.3
CCCC(=O)Nc1nnc(CC(=O)OCC)s1 | i | 2.0
O=C(CCN1CCN(CC(=O)Nc2ccccc2Cl)CC1)Nc1ccccc1F | x | 1.5
O=C(COc1ccc(Cl)cc1)NCc1nnc(SCC(=O)Nc2ccccc2)o1 | x | 0.4
CN(Cc1nc(-c2ccncc2)no1)S(=O)(=O)c1ccc(Cl)cc1 | i | 0.0
O=C(COc1ccc(F)cc1)Nc1ccc(-n2cnnn2)cc1 | i | 3.7
Cc1nc2sc(C(c3cccc(F)c3)N3CCC(C)CC3)c(O)n2n1 (configuration not stated) | i | -0.3
CCN(CC)CCNC(=O)Cc1c(C(=O)O)n(C)c2ccccc12 | x | 0.9
O=C(NCCCN1CCCC1=O)C1CCN(S(=O)(=O)N2CCOCC2)CC1 | i | -1.3
Cc1ccc(-c2noc(CSc3nnnn3C3CCCCC3)n2)cc1 | x | 0.2
CSc1ccc(C2C(C#N)=C(N)Oc3c2ccc(=O)c2c(C)oc(C)c32)cc1 (configuration not stated) | x | u
COC(=O)c1cn(NC(=O)C2CCCO2)c(=O)c2ccccc12 (configuration not stated) | i | 0.3
Cc1c(NC(=O)C23CC4CC(CC(C)(C4)C2)C3)c(=O)n(-c2ccccc2)n1C | x | -1.5
CCOC(=O)c1ccc(NS(=O)(=O)c2ccc3c(c2)oc(=O)n3C)cc1 | i | 1.2
COc1cc(NC(=O)CC(C)C)ccc1NC(=O)c1ccco1 | i | -1.6
Cc1ccccc1CS(=O)(=O)Cc1ccc(C(=O)NCc2ccco2)o1 | x | -0.2
CC(CN1CCOCC1)(NS(=O)(=O)c1ccccc1)c1ccccc1 (configuration not stated) | 41 | 1.8
CCOc1ccc(C(=O)Nc2cccc(-c3nc4cccnc4o3)c2)cc1Cl | x | -1.3
COc1ccc(C2C(C(=O)N3CCN(c4ccccc4)CC3)c3ccccc3C(=O)N2C)cc1 (configuration not stated) | x | -1.4
CSc1nnc(-c2ccc(NC(=O)CCc3ccccc3)cc2)n1C | i | 0.9
COc1ccccc1Oc1coc2c(CN3CCN(C)CC3)c(O)ccc2c1=O | i | -0.2
COC(=O)C(C)Sc1nc2c(c(=O)n(C)c(=O)n2C)n1Cc1cccc(C)c1 (configuration not stated) | i | -2.0
O=C(CN1CCN(c2nc(-c3ccc(F)cc3)cs2)CC1)NCc1ccc2c(c1)OCO2 | i | 7.5

Three entries drawn at random from the list so far, as already listed:
SMILES | VCAM-1 rise | Proteasome disasm
CCOc1ccc(C(=O)Nc2cccc(-c3nc4cccnc4o3)c2)cc1Cl | x | -1.3
Cc1c[n+]([O-])n(-c2ccc(C(=O)O)cc2)n1 | x | -1.1
Cc1ccc(-c2noc(CSc3nnnn3C3CCCCC3)n2)cc1 | x | 0.2

An excerpt of these results, field by field:
COc1cccc(NC(=O)N2CCN(C(=O)C(Cc3ccc(OC)c(OC)c3)NC(C)=O)CC2)c1 (configuration not stated)
- VCAM-1 rise: i
- Proteasome disasm: -0.1

C=CCSc1nnc(-c2c[nH]c3ccccc23)n1CCOC
- VCAM-1 rise: x
- Proteasome disasm: -0.7

CCCc1cc(=O)[nH]c(=S)[nH]1
- VCAM-1 rise: i
- Proteasome disasm: -0.4

Cc1ccc(-c2noc(CSc3nnnn3C3CCCCC3)n2)cc1
- VCAM-1 rise: x
- Proteasome disasm: 0.2

Continued.
SMILES | VCAM-1 rise | Proteasome disasm
CCOCCn1c(CN2CCN(c3cccc(Cl)c3)CC2)nc2c1c(=O)n(C)c(=O)n2C | i | 0.5
CCOC(=O)N1CCC(NC(=O)c2ccc3c(c2)sc2nc(-c4cccc(OC)c4)cn23)CC1 | i | 2.3
CCOC(=O)N1CCC(NC(=O)C2CCN(S(=O)(=O)c3cccs3)CC2)CC1 | x | -0.1
O=C1CCc2cc(S(=O)(=O)N3CCN(c4cccc(C(F)(F)F)c4)CC3)ccc2N1 | x | -2.2
Cc1cccc(NC(=O)C2CCCN(S(=O)(=O)c3cccc4nsnc34)C2)n1 (configuration not stated) | x | -0.7
Cn1c(=O)c2cc(S(=O)(=O)NC(C(=O)Nc3cccnc3)c3ccccc3)ccc2n(C)c1=O (configuration not stated) | x | 1.4
CCCC1c2ccc(C)n2CCN1C(=O)Nc1ccc(F)cc1 (configuration not stated) | x | 8.6
N#Cc1ccccc1Cn1c(=O)n(CCCC(=O)NCc2ccc3c(c2)OCO3)c(=O)c2ccccc21 | x | 0.2
Cc1cc(C(=O)COc2cccc3cccnc23)c(C)n1C | i | 1.6
O=C(CCC1N=C2c3ccccc3N=C(SCc3ccc(Cl)cc3)N2C1=O)NCc1ccco1 (configuration not stated) | x | 3.8
COc1cc(S(=O)(=O)N2CCOCC2)ccc1NC(=O)COC(=O)c1ccccn1 | i | 2.6
CCOC(=O)N1CCN(c2cc(=O)n(-c3ccccc3Cl)c(=O)[nH]2)CC1 | i | -0.8
O=C(Cn1cnc2c(cnn2-c2ccc(Cl)cc2)c1=O)NCC1CCCO1 (configuration not stated) | x | 0.6
CCn1cc(C(=O)NCCCOC(C)C)c2cc(OC)c(OC)cc2c1=O | x | 0.1
Cc1ccc(CS(=O)(=O)Cc2ccc(C(=O)NCCCN3CCOCC3)o2)cc1 | x | -2.0
COc1cccc(C2CC(c3cccc(Br)c3)n3ncnc3N2)c1 (configuration not stated) | x | 0.4
COc1ccc(N2CCN(C(=O)c3cccc(N4C(=O)C5CC=CC(C)C5C4=O)c3)CC2)cc1 (configuration not stated) | x | 4.6
COc1ccc(-n2c(SCC(=O)N3CCCCC3C)nnc2-c2cccnc2)cc1 (configuration not stated) | i | 24
Cn1c(Cn2c(=O)sc3ccccc32)nnc1SCC(=O)Nc1ccc(Cl)cc1 | x | -1.4
Clc1ccc(C2CC(c3cccs3)n3ncnc3N2)c(Cl)c1 (configuration not stated) | x | 0.6
Cc1nc2c(c(=O)n1CC1CCCO1)c1nc3ccccc3nc1n2CC(C)C (configuration not stated) | i | -2.8
O=C(C1CCN(c2nnc(-n3cccc3)s2)CC1)N1CCc2ccccc2C1 | i | 1.7
O=C(C1CC1)N1CCc2cc(S(=O)(=O)N3CCCc4ccccc43)ccc21 | x | -1.6
COc1ccc(S(=O)(=O)Cc2ccc(C(=O)N3CCN(c4cccc(C)c4)C(C)C3)o2)cc1 (configuration not stated) | x | 24
CC1=C/C(=C/N(C)c2ccccc2)C(=O)S1 | i | 0.6

Looked up above:
Proteasome disasm, O=C(C1CC1)N1CCc2cc(S(=O)(=O)N3CCCc4ccccc43)ccc21 stands at -1.6
Proteasome disasm, COc1cc(S(=O)(=O)N2CCOCC2)ccc1NC(=O)COC(=O)c1ccccn1 stands at 2.6
Proteasome disasm, N#Cc1ccccc1Cn1c(=O)n(CCCC(=O)NCc2ccc3c(c2)OCO3)c(=O)c2ccccc21 stands at 0.2

The results go on.
SMILES | VCAM-1 rise | Proteasome disasm
COCCNC(=O)Cn1cc2c(n1)CCCCC2 | i | 0.0
CCOC(=O)C1CCCN(C(=O)c2cn(CC(C)C)c(=O)c3cc(OC)c(OC)cc23)C1 (configuration not stated) | x | -1.8
CCCN1CCN(C(=O)Cn2cccc2C(=O)c2ccccc2)CC1 | i | 0.1
COc1ccc(OCC(=O)Nc2cccc3ncccc23)cc1 | i | 1.3
Cc1nnc(N2C(=O)c3oc4ccccc4c(=O)c3C2c2ccco2)s1 (configuration not stated) | i | 0.2
O=C(C1CC1)N1CCN=C1SCc1ccc(F)cc1 | x | 6.3
Cn1c(SCC(N)=O)nnc1C1CCN(S(=O)(=O)c2ccccc2C(F)(F)F)CC1 | i | 0.0
CCOC(=O)N1CCC(NC(=O)CCc2nc(-c3ccccc3F)no2)CC1 | x | 1.7
O=C(CCNS(=O)(=O)c1ccc(Cl)cc1)NCc1cccnc1 | x | -0.5
Cc1ccc(-c2cn3cccnc3n2)cc1NC(=O)c1c(-c2ccccc2Cl)noc1C | x | 2.3
CCOC(=O)CN(C(=O)c1ccccc1)c1ccccc1C | i | 3.6
CCc1nn(C(C)C(=O)NCCc2ccc(OC)c(OC)c2)c(=O)c2cc3occc3n12 (configuration not stated) | x | 1.6
